Screening results from PubChem.
SARS PLP yeast – inhibitors of SARS-CoV papain-like protease in yeast. S. cerevisiae expressing SARS-CoV PLpro, growth rescue; control for the full effect not named in the record. Potency, µM (top dose mostly 32.9 µM), inactives show at the top dose activity, positive = growth rescue. actives 0.19% (n = 330,000); also: 0% is about no effect; nearly all actives have a fitted effect of over 55% in size; growth read by luminescence after 48 h
NS1 function inh – blocks influenza NS1 protein function; AID 2326; S. cerevisiae slowed by influenza A NS1, growth recovery by OD600; actives 0.4% (n = 270,000); Potency, µM (doses to about 46.1 µM), inactives show at the highest dose activity, positive = more growth; also: actives are rising curves; nearly all actives have a fitted effect of over 50% in size
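Compounds were scored for reversing the slow growth caused by influenza A NS1 in S. cerevisiae, measured by optical density at 600 nm. Assay medium contained 2% galactose at pH 6.0; NS1-free yeast of the same strain were the positive control.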
MARV entry inh – inhibitors of Marburg virus binding or cell entry; actives 1.8% (n = 300,000); Marburg virus pseudotyped entry inhibition, cell reporter; control for the full effect not named in the record; about a third of the inactives were read at about 46 µM; AID 540276; Potency, µM (doses to about 37.8 µM), for inactives: top-dose activity change, negative = inhibition, hits mostly inhibitors; active = well fitted inhibition curve with a large enough effect; inconclusive = small, poorly fitted or top-dose-only effect, or effect the other way; inactive = flat fitted curve, though single readings scatter; tested in HEK293 cells; about a fifth of its hits are not listed in these tables; also: % is scaled to controls: 0 for no effect and ±100 for the full control effect; luciferase read-out
Cruzain Triton – inhibitors of Trypanosoma cruzi cruzain with detergent; P25779; purified cruzain, Z-FR-AMC fluorescence, 0.01% Triton; Potency, µM, without a hit: max response, negative = inhibition, most hits filed as inhibitors; actives 0.43% (n = 200,000); AID 1478; active = well fitted curve in the direction sought with a large enough effect; inconclusive = small, poorly fitted or top-dose-only effect, or another doubt; inactive = no such curve, though single readings can be large; an effect the other way counts as inactive or inconclusive;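 also: plate controls were neutral wells for no effect and buffer without enzyme for full effect; nearly all actives have a fitted effect of over 40% in size; top concentration of the series not given in the record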
Target sequence (P25779 123-467 limits assumed): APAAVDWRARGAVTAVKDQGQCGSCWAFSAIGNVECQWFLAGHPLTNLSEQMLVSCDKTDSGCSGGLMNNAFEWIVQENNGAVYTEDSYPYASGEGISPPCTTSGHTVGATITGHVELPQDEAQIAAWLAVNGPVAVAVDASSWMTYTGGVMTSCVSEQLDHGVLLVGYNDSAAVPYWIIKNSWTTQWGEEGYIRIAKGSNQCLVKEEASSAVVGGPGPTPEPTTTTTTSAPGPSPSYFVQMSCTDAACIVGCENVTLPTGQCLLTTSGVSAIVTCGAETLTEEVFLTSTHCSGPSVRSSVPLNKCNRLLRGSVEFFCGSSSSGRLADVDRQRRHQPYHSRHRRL
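In this qHTS format, compounds are incubated with 1.5 nM cruzain for 15 min at room temperature before 2 uM Z-FR-AMC is added. Release of AMC is followed at 360/450 nm, and progress is taken as the 60 s fluorescence difference.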
Lassa entry inh – blocks Lassa virus binding to or entry into cells. Lassa virus pseudotype entry inhibition, cell reporter; control for the full effect not named in the record. Potency, µM (titrated, usually from 37.9 µM), without a hit: at the highest dose activity change, negative = inhibition, usual class: inhibitors. actives 1.2% (n = 300,000). AID 540256; active means well fitted inhibition curve with a large enough effect; inconclusive means small, poorly fitted or top-dose-only effect, or effect the other way; inactive means flat fitted curve, though single readings scatter; tested in HEK293 cells; also: % is scaled to controls: 0 for no effect and ±100 for the full control effect; nearly all actives have a fitted effect of over 50% in size; luciferase read-out
Cruzain noTriton – blocks cruzain activity in detergent-free assay; P25779; purified cruzain, Z-FR-AMC fluorescence, no detergent; Potency, µM, for inactives: max response, negative = inhibition, hits mostly inhibitors; actives 2.3% (n = 200,000); active = well fitted curve in the direction sought with a large enough effect; inconclusive = small, poorly fitted or top-dose-only effect, or another doubt; inactive = no such curve, though single readings can be large; an effect the other way counts as inactive or inconclusive;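 also: plate controls were enzyme without inhibitor for no effect and buffer without enzyme for full effect; nearly all actives have a fitted effect of over 40% in size; top concentration of the series not given in the record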
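Detergent-free condition (0.00005% Triton X-100) in acetate buffer pH 5.5 with DTT. 1.5 nM enzyme and compound were pre-mixed 15 min, then 2 uM Z-FR-AMC substrate added; reaction progress from fluorescence change between first and third reads (60 s).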
RE007 growth inh – less growth of the S. pombe RE007 Vpr strain. actives 0.21% (n = 360,000). Potency, µM (highest dose often 92.2 µM), inactives show at the highest dose activity change, negative = less growth. S. pombe RE007 Vpr strain, BacTiter-Glo ATP luminescence, 24 h; control for the full effect not named in the record. AID 651644; active = well fitted falling curve with a large enough effect; inconclusive = small, poorly fitted or top-dose-only effect; inactive = no such curve, though single readings can be large or run the other way;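 also: % is scaled to controls: 0 for no effect and ±100 for the full control effect; nearly all actives have a fitted effect of over 50% in size; the assay follows cell death caused by Vpr and the record does not say whether a fall means rescue or toxicity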
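Fission yeast strain RE007, carrying one chromosomally integrated HIV-1 vpr copy, was seeded at OD 0.01 in PMG+AL medium with 23 nL pinned compound. After 24 h at 30 °C and 99% humidity, viability was read by BacTiter-Glo luminescence.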
StopGo reporter – FMDV 2A StopGo reporter, luciferase signal. actives 1.2% (n = 410,000). Potency, µM (top dose mostly 57.9 µM), for inactives: top-dose signal change, negative = less light. human cells with a luciferase reporter of 2A StopGo recoding; control for the full effect not named in the record; active = well fitted falling curve with a large enough effect; inconclusive = small, poorly fitted or top-dose-only effect; inactive = no such curve, though single readings can be large or run the other way; tested in HEK293T cells; also: % is scaled to controls: 0 for no effect and ±100 for the full control effect; nearly all actives have a fitted effect of over 45% in size; luciferase light after 4 h
Numbers without * were called inactive; ? = inconclusive; . = not tested or not shown; & = joins results of further samples; [ ] = dose if it differs, or a comment. Unless noted, calls follow the shape of the dose curve; as a rule, active means well fitted rising curve with a large enough effect; inconclusive means small, poorly fitted or top-dose-only effect; inactive means no such curve, though single readings can be large or run the other way. Potency is read from the fitted curve at half-maximal effect.

no. | Molecule | Lassa entry inh | StopGo reporter | MARV entry inh | NS1 function inh | SARS PLP yeast | Cruzain Triton | RE007 growth inh | Cruzain noTriton
1 | O=[N+]([O-])c1ccc(CN2CCCCCC2)cc1 | ? | -2% | 12% | 3% | 7% | . | -10% | .
2 | Cc1csc(=O)n1CC(=O)OCC(=O)c1ccc(Br)cc1 | -14%[46.1 µM] | 10% | 3% | . | -2% | . | -9% | .
3 | CCCc1nc(SCC(=O)N2CCC(C)CC2)c2c(=O)n(C)c(=O)n(C)c2n1 | -8%[46.1 µM] | ? | -2%[46.1 µM] | -2% | 1% | . | -13% | .
4 | COc1ccc(Cl)cc1N(CC(=O)N1CCCC1)S(=O)(=O)c1ccc(C)cc1 | -14%[46.1 µM] | 46%[activator] | ? | 6% | 0% | . | -9% | .
5 | O=C(CSc1nccn1Cc1ccccc1)Nc1nccs1 | ? | 23% | 2% | 3% | 2% | 7.5% | 2% | 1%
6 | CCCCN(C(=O)CSCC(=O)Nc1ccc(OC)cc1)c1c(N)n(CCC)c(=O)[nH]c1=O | 21% | -8% | ? | . | -7% | . | -21% | .
7 | O=C1CC(c2c(F)cccc2Cl)C(n2cncn2)C(O)=C1C1NCCc2ccccc21 (stereo unspecified) | 4% | 7% | 0%[46.1 µM] | . | 1% | . | -5% | .
8 | Nn1c(SCc2cccc(C(F)(F)F)c2)nnc1-c1ccco1 | -18% | 16% | ? | -11% | -1% | -1.9% | 4% | 12%
9 | COc1ccc(CCn2nnnc2C(C(C)C)N2CCC(C(N)=O)CC2)cc1OC (stereo unspecified) | 5% | 4% | 16%[46.1 µM] | -5% | -1% | 4.1% | -5% | -2%
10 | CC(=O)Nc1cc(-c2ccc(Cl)cc2)nn1-c1ccccc1 | 1% | -7% | 3% | -1% | -16% | -5.8% | -16% | 0%
11 | Cn1cc(C=C(C#N)C#N)c2ccccc21 | . | 7% | . | 7% | 0% | . | -2% | .
12 | O=C(COc1ccc(S(=O)(=O)N2CCCCC2)cc1)N1CCOCC1 | 23% | -22% | 0% | 5% | 0% | . | 3% | .
13 | COc1cccc(NC(=O)c2ccc3nc(Cc4ccccc4)oc3c2)c1 | -16%[46.1 µM] | -13% | . | . | . | -5.9% | . | -2%
14 | Cc1ccc(/C=N/Nc2ccc(F)cc2F)s1 | . | 65%[activator] | . | -6% | -3% | . | -2% | .
15 | CCOC(=O)/C(C#N)=C1/C=C(C)c2ccccc2N1 | . | 3% | . | -1% | 1% | . | -4% | .

Random excerpt: two records from the list, in no set order.
no. | Molecule | Lassa entry inh | StopGo reporter | MARV entry inh | NS1 function inh | SARS PLP yeast | Cruzain Triton | RE007 growth inh | Cruzain noTriton
5 | O=C(CSc1nccn1Cc1ccccc1)Nc1nccs1 | ? | 23% | 2% | 3% | 2% | 7.5% | 2% | 1%
12 | O=C(COc1ccc(S(=O)(=O)N2CCCCC2)cc1)N1CCOCC1 | 23% | -22% | 0% | 5% | 0% | . | 3% | .

The results go on.
no. | Molecule | Lassa entry inh | StopGo reporter | MARV entry inh | NS1 function inh | SARS PLP yeast | Cruzain Triton | RE007 growth inh | Cruzain noTriton
16 | CN(C)CC#CCCCCCCC#CCN(C)C | . | . | -9% | -1% | 4% | 6.8% | . | -3%
17 | Cc1[nH]c2ccccc2c1/C=C(\C#N)S(=O)(=O)c1ccccc1 | 0% | -23% | -3% | 13% | 6% | 4.3% | -17% | -7%
18 | CC(C)c1cc(C(=O)NC(C)c2ccccc2)no1 (stereo unspecified) | -1%[46.1 µM] | -4% | -25%[46.1 µM] | . | . | -3.5% | . | 1%
19 | COc1ccc(Br)cc1CNC(=O)CCSCc1ccc(Cl)cc1 | 9%[46.1 µM] | -8% | . | . | . | 0.8% | . | -11%
20 | Cn1c(-c2ccccc2)cnc1SCC(=O)N1CCCCC1 | 3.5µM* | 16µM* | ? | -7% | 11% | 0.0% | -5% | -19%
21 | COC(=O)C1(S(=O)(=O)c2cc(Br)cc3c2N(C(C)=O)CC3)CC1 | 8% | -3% | 2% | 2% | ? | 3.9% | -9% | 1%
22 | Cc1ccc(NC(=O)Nc2cnc3ccccc3c2)cc1 | 19%[46.1 µM] | 20% | ? | -1% | -1% | . | 25% | .
23 | Cc1ccc2cc(C)c(Sc3nnnn3-c3ccccc3)nc2c1 | 6% | 55%[activator] | 22% | 5% | 5% | -3.6% | 18% | -16%
24 | CC1=NN(/C(=N\c2nnc(C)s2)Nc2ccc(C)cc2)[C@H](c2ccc(C)cc2)S1 | -7% | 16% | ? | 4%[9.22 µM] | ? | -8.8% | 24% | -10%
25 | Cc1cccc(N2CCN(C(=O)CCNS(=O)(=O)c3cccs3)CC2C)c1 (stereo unspecified) | . | 10% | 1%[46.1 µM] | -2% | -1% | . | 7% | .
26 | C=CCn1c(SCC(=O)Nc2ccc(OC)cc2)nc2c([nH]c3ccccc32)c1=O | -15% | 0% | 14% | 11% | -4% | . | -14% | .
27 | CN(C)S(=O)(=O)c1ccc(C(=O)NCCN2C(=O)S/C(=C\c3cccnc3)C2=O)cc1 | 2% | 26% | 15%[46.1 µM] | 3% | -1% | . | -6% | .
28 | CCOc1ccccc1-n1c(CN2CCN(C(=O)c3ccco3)CC2)nc2ccccc2c1=O | 7% | -30% | -5%&-5% | -16%[9.22 µM] | -3% | -2.9% | 4% | 14%
29 | CN(CCOc1ccc(F)cc1)Cc1ccccc1 | 22% | -7% | 13% | -1% | -5% | . | 5% | .
30 | CCc1cc(=O)oc2c(C)c(O[C@@H]3O[C@H](CO)[C@@H](O)[C@H](O)[C@H]3O)ccc12 | 8% | -1% | -15% | 3% | 1% | . | -4% | .
31 | COc1ccc(N/C=C2\CCc3ccccc3C2=O)cc1 | . | 25µM* | . | -35% | -4% | . | ? | .
32 | Cc1cc(OC(C)C(=O)Nc2ccncc2)ccc1Cl (stereo unspecified) | . | ? | . | -45% | -15% | . | -16% | .
33 | CCC(c1nnc(SCC(=O)Nc2cccnc2Cl)n1-c1ccccc1)N(C)C (stereo unspecified) | 0% | 7% | 16%[46.1 µM] | -4% | 0% | . | 7% | .
34 | COCCn1nnnc1C(C(C)C)N1CCSCC1 (stereo unspecified) | . | -11% | . | -5% | -1% | . | 6% | .
35 | COc1cccc(-n2ccnc2SCC(=O)Nc2ccccc2F)c1 | 3% | 1% | ? | . | 5% | . | 0% | .
36 | COc1ccc(C(=O)Cc2ccc3c(c2)OCO3)c(O)c1 | ? | 18% | ? | ? | 7% | -1.3% | 8% | -16%
37 | COc1cccc(-n2c(=S)sc3c(=O)n(-c4ccccc4OC)c(=S)[nH]c32)c1 | -6%[46.1 µM] | -18% | -17%[46.1 µM] | . | 8% | . | 6% | .
38 | Cc1cc(NC(=O)CS(=O)(=O)c2ccc(Cl)cc2)no1 | . | -5% | . | 8% | -1% | . | 1% | .
39 | O=C(O)CSc1nc2ccccc2[nH]1 | -5% | -17% | 2% | -7%&-4% | 2% | 1.6%&1.3% | 3% | 21%&-15%
40 | CC(C)NS(=O)(=O)c1ccc(OCC(=O)NCc2ccc3c(c2)OCO3)c(Cl)c1 | ? | -4% | -16%[46.1 µM] | 0% | 6% | -5.1% | -2% | -7%
41 | O=C(NN=C1CCCC1)c1ccc(O)cc1 | . | -9% | . | 6% | ? | . | -4% | .
42 | Cc1cc(C)c(S(=O)(=O)N2CCN(CCN3C(=O)c4cccc5cccc(c45)C3=O)CC2)cc1[N+](=O)[O-] | -4% | . | 13% | -3% | -3% | -3.4% | . | ?
43 | CCOC(=O)CSc1nc2ccccc2c(=O)n1CC1CCCC1 | 1% | -26% | 2% | -10% | -32% | -6.2% | -12% | -5%
44 | COc1cccc(NC(=O)CSC2=Nc3ccccc3C3=NC(CCC(=O)NC4CCCCC4)C(=O)N23)c1 (stereo unspecified) | 21%[46.1 µM] | -29% | . | . | . | 2.4% | . | 6%
45 | O=C(N=NC(=O)c1ccc2c(O)n(C3CCCCC3)c(O)c2c1)c1cccnc1 | 16% | ? | -17% | -4% | -2% | 4.4% | -1% | -18%
46 | CC(=O)Nc1ccc(C(=O)OCC(=O)Nc2ccc(N3CCOCC3)cc2)cc1 | 10%[46.1 µM] | -3% | ? | . | -3% | . | -18% | .
47 | Cc1ccc(CN(C(=O)COc2ccc(Cl)cc2C)C2CCS(=O)(=O)C2)o1 (stereo unspecified) | -7%[46.1 µM] | -29% | -15%[46.1 µM] | . | . | -8.0% | . | ?
48 | C=CCNS(=O)(=O)c1cc(S(=O)(=O)NCC=C)c(OC)cc1OC | 14% | 107%[activator] | 8%[46.1 µM] | . | 0% | . | 16% | .
49 | COc1ccc(N2CCN(C(=O)c3cn(C)c(=O)c4c3c3ccccc3n4C)CC2)cc1 | -2% | 40%[activator] | -7% | -7% | 10% | -6.1% | 6% | ?
50 | COc1cc(NC(=O)c2ccc3c(SCC(=O)O)c4c(nc3c2)CCC4)cc(OC)c1OC | . | 4% | . | 6% | 1% | . | -6% | .
51 | CCCc1[nH]n(-c2nc3ccccc3s2)c(=O)c1C=NCCCOC | . | -2% | . | -6% | -1% | . | -10% | .
52 | O=C(O)c1cc(NS(=O)(=O)c2ccc(N3CCCCC3)c([N+](=O)[O-])c2)cc(C(=O)O)c1 | 18% | -19% | ? | 11% | -13% | -2.3% | 2% | -3%
53 | O=C(O)CCN1C(=O)C2C3c4ccccc4C(c4ccccc43)C2C1=O (stereo unspecified) | . | -1% | . | -1% | 3% | . | 21% | .
54 | O=C1N(CCCCN2C(=O)C3(OCCO3)c3ccccc32)c2ccccc2C12OCCO2 | -7% | ? | -5%&-5% | -20% | 7% | -0.5% | -9% | ?
55 | COc1ccc(N2CCN(c3ncnc4scc(-c5ccc(C)cc5)c34)CC2)cc1 | 10µM* | ? | ? | 7% | -33% | . | 9% | .
56 | O=S(=O)(/C=C/c1ccccc1)n1cnc2ccccc21 | -1% | -10% | 14% | -65% | 3% | 2.0% | 8% | -1%
57 | COc1ccc(C(=O)COc2nc(C)cc(C)c2C#N)cc1 | -4% | -10% | ? | -18% | -5% | -13% | 6% | 10%
